# Pyk2 oligo antag = antagonists of Pyk2 self-association, primary screen, Q293 cells, FERM NanoBiT luminescence, HTS | Protein-tyrosine kinase 2-beta (Homo sapiens), Q14289 | stronger effect = lower value | z-score (the deposit names both 25 µM and 10 µM) | 99,000 tested, 0.83% active;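 active = Z-score of -3 or lower, scaled per plate to the spread of control and sample wells; inactive = z-score above -3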;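 also: negative z-score means lost luminescence so less FERM oligomerization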
# Ecoli WT expand = growth inhibitors of wild-type E. coli, primary screen, strain BW25113, expanded library, OD600. OD600 absorbance. growth inhibition, % at 100 µM. 98,000 tested, 0.15% active;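 active = growth inhibition above about 50% at one test dose, limit read from the data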;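 also: growth measured after 20 h incubation at 37 °C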
# PostGolgi yeast = phenotypic screen on post-Golgi transport, primary screen | post-Golgi transport phenotypic cell assay | inhibition, % at 10 µM | 98,000 tested, 0.9% active | AID 739, 2007; in the data active = inhibition above about 30%;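 also: yeast cells grown in 1536-well plates; yeast grown about 18 h at 30C before absorbance read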
# PLAP act = PLAP enzyme activators, biochemical, luminescence, HTS; Alkaline phosphatase, placental type (Homo sapiens), P05187; purified PLAP enzyme, luminescent substrate read-out; stronger effect = higher value; activation fold at 20 µM; 96,000 tested, 1.2% active; in the data active = activation fold above about 2
# Target sequence (P05187 whole entry, looked up): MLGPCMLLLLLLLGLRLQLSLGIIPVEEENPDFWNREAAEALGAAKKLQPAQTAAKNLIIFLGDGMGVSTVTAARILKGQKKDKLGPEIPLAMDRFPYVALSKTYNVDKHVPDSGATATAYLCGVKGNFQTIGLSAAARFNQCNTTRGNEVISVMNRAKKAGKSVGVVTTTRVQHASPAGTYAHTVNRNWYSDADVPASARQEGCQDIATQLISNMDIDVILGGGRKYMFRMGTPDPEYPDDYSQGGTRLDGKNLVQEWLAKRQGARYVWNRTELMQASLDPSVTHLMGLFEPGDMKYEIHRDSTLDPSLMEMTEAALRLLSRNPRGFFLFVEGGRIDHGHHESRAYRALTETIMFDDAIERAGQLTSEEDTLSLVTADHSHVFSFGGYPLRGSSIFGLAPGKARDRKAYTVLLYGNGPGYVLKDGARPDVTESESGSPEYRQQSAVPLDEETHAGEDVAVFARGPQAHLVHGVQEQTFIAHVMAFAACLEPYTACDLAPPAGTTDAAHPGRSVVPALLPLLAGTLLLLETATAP
# EphB4 antag = EphB4-ephrin-B2 interaction antagonists, primary screen, biochemical, TNYL-RAW peptide probe, fluorescence polarization | Ephrin type-B receptor 4 (Homo sapiens), P54760 | AID 720, 2007 | 97,000 tested, 0.15% active | EphB4 LBD / TNYL-RAW-Alexa532 peptide | inhibition, % at 7 µM;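 active = inhibition above the screen-wide mean inhibition plus 3 SD, cut at about 15% in these data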;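 also: 0% = DMSO wells and 100% = excess unlabeled TNYL-RAW peptide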
# Numbers without * were called inactive; nt = no result given. A portion of the library; rates above refer to the full screens.
SMILES,Pyk2 oligo antag,Ecoli WT expand,PostGolgi yeast,PLAP act,EphB4 antag
CC(=O)OCP(C)(=O)COC(C)=O,-1.2,3.0,-6.2,1.1,-0.6
COc1cc2c(cc1OC)C(C(=O)NCc1cccnc1)C(c1cccnc1)N(C)C2=O (configuration not stated),-0.92,-1.0,7.2,1.3,-9.5
O=C(Nc1ccc(Cl)cc1)Nc1nc(-c2sccc2Br)cs1,-0.18,-17.0,2.0,0.9,-10.8
Cc1nc(N2CCN(c3ccccc3)CC2)[nH]c(=O)c1Cc1cccc2ccccc12,nt,-10.0,-2.1,1.1,-4.1
CCn1cc(C(=O)NCC2CCCO2)c(=O)c2cc(F)c(N3CCN(C)CC3)cc21 (configuration not stated),-0.37,-5.0,-8.2,1.2,1.5
CCc1ccc(OCC(=O)NCCN(C)C)c(Br)c1,1.13,10.0,-3.3,1,1.4
CCCn1c(-c2cc(OC)c(OC)c(OC)c2)nc2nc3ccccc3nc21,-1.12,8.0,-1.4,1,5.5
O=c1oc(-c2cccs2)nc2ccc(Br)cc12,-1.23,-5.0,-3.3,1.1,-4.5
COc1ccccc1OC(C)C(=O)O (configuration not stated),0,-1.0,-1.9,1.1,1.3
O=S(=O)(c1cccc2nsnc12)N1CCN(c2ncccn2)CC1,-0.74,3.0,0.2,1,-2.3
C[N+]1(CC(=O)Nc2ccc(F)cc2)CCN(C(=O)c2ccco2)CC1,1.64,4.0,1.7,0.9,-3.9
c1ccc(Cn2nnc3c(N4CCc5ccccc5C4)ncnc32)cc1,-0.76,-21.0,-1.9,1.4,0.2
Cc1ccc(-c2nc3c(cnn3-c3ccccc3)c(=O)o2)cc1,1.58,-16.0,13.2,1.1,-10.3
COc1ccc(/C=C/C(=O)NCc2c(C)nn(C)c2C)cc1COc1ccc(Br)cc1,2.88,8.0,-3.6,1.1,1.9
CCCCN(CCCC)c1nc(OC)nc(-n2nnc(C(C)=O)c2C)n1,-1.88,6.0,1.4,1.2,-3.1
CC(C)CC(=O)NC1(C(F)(F)F)C(=O)N(Cc2ccccc2)C2=C1C(=O)CC(C)(C)C2 (configuration not stated),0.05,-4.0,4.7,1.2,3.2
O=C(Nc1ccc(F)cc1)Nc1nnc(-c2ccncc2)s1,-1.79,12.0,-5.6,1,-2.0
CCOC(=O)c1cnc(-c2ccccc2)nc1Oc1ccc(Cl)c(Cl)c1,0.89,-3.0,-9.6,1,-4.2
O=C(CSc1ccccc1C(=O)O)NCc1ccco1,1.12,-6.0,4.9,0.9,-7.6
O=C(CSc1nnc2c3ccccc3c3ccccc3c2n1)Nc1ccccc1F,-0.66,11.0,0.2,0.9,-7.9
Cc1nnc(SCc2ccc(F)cc2Cl)s1,-0.18,12.0,13.3,1,1.2
Cc1ccc(NC(=O)c2c(C(F)(F)F)nn(C)c2Cl)cc1C,-0.69,-1.0,-0.2,0.9,-4.3
CCCC(C)c1nnc(NC(=O)c2cc(C(=O)OC)cc([N+](=O)[O-])c2)s1 (configuration not stated),-1.85,8.0,8.0,1.1,0.1
COc1ccc(CCNC(=O)c2ccc(CS(=O)(=O)c3ccc(Cl)cc3)o2)cc1OC,-0.84,-3.0,-15.8,1,0.5
S=c1[nH]nc(CCc2ccccc2)n1Cc1ccccc1,-0.01,-1.0,3.9,0.8,-2.7
CN1C(=O)CC(Sc2ccccc2C(=O)O)C1=O (configuration not stated),0.21,-4.0,-9.0,1.1,-3.6
CCOC(=O)NC(NC(=O)OCC)C(=O)c1ccccc1,-0.38,5.0,4.2,1.1,-1.6
O=C(NCCCN1CCN(c2ccccc2F)CC1)C1CCC(=O)N1C1CCCCC1 (configuration not stated),0.19,6.0,-1.9,1.2,-5.5
COc1ccccc1Cn1nnc2c(=O)[nH]c(C3CCN(C(=O)c4ccc(F)cc4)CC3)nc21,0.16,3.0,-0.5,1.4,0.8
O=C(COc1ccc(Cl)cc1)Nc1ccccc1CO,-0.18,1.0,1.1,0.9,nt
O=C(NC1CCCC1)C(c1ccsc1)N(Cc1ccccc1)C(=O)Cc1cccs1 (configuration not stated),-1.7,-6.0,-4.2,0.9,1.5
Cc1sc2ncnc(N3CCN(c4ncccn4)CC3)c2c1C,-0.4,12.0,-2.6,1.2,-1.0
Cc1ccc(NC(=O)c2cc(N3C(=O)C4CC=CCC4C3=O)ccc2N2CCOCC2)cc1Cl (configuration not stated),0.22,-4.0,0.7,1.1,7.6
c1ccc(-n2cnc3cc(NCc4cccs4)ccc32)cc1,0.72,-5.0,15.4,1.1,3.5
CCOC(=O)c1cc2c(=O)n3ccccc3nc2n(Cc2ccco2)c1=NC(=O)c1cccnc1,-0.03,-4.0,7.9,1.3,-0.6
O=C(Nc1cccc(C(=O)N2CCCC2)c1)c1ccccc1,-1.37,8.0,-8.7,1.2,-7.7

# Structural class: the compounds so far with a thiophene ring, fused or not (five)
SMILES,Pyk2 oligo antag,Ecoli WT expand,PostGolgi yeast,PLAP act,EphB4 antag
O=C(Nc1ccc(Cl)cc1)Nc1nc(-c2sccc2Br)cs1,-0.18,-17.0,2.0,0.9,-10.8
O=c1oc(-c2cccs2)nc2ccc(Br)cc12,-1.23,-5.0,-3.3,1.1,-4.5
O=C(NC1CCCC1)C(c1ccsc1)N(Cc1ccccc1)C(=O)Cc1cccs1 (configuration not stated),-1.7,-6.0,-4.2,0.9,1.5
Cc1sc2ncnc(N3CCN(c4ncccn4)CC3)c2c1C,-0.4,12.0,-2.6,1.2,-1.0
c1ccc(-n2cnc3cc(NCc4cccs4)ccc32)cc1,0.72,-5.0,15.4,1.1,3.5

# Going on with the list.
SMILES,Pyk2 oligo antag,Ecoli WT expand,PostGolgi yeast,PLAP act,EphB4 antag
Cc1ccc(CNC(=O)CCNC(=O)c2ccco2)cc1,-0.56,7.0,-1.6,0.9,-4.0
Cc1cccc(-n2c(C)cc(/C=N/n3cnnc3)c2C)c1,0.57,-5.0,7.5,1.2,3.6
CCOc1cc(/C=C2/C(=O)N(c3ccccc3)N=C2C)ccc1OC(=O)c1cccs1,-1.32,-2.0,2.2,0.9,2.8
Cc1nc(NC(=O)c2ccc(Cl)cc2)sc1-c1csc(Nc2cccc(F)c2)n1,nt,-19.0,-2.9,0.9,-3.6
CC(=O)NC1(C(F)(F)F)NC(=O)N(C2CCCCC2)C1=O (configuration not stated),0.82,2.0,-2.7,1.2,-0.4
CCNC(=S)NNC(=O)c1csc2ccccc12,-0.57,4.0,7.2,1.4,3.9
Cc1ccc2c(c1)[C@@H]1CN(C)CC[C@@H]1N2S(=O)(=O)c1ccc([N+](=O)[O-])cc1,-0.2,6.0,1.3,1.2,-7.1
COC(=O)c1sc(=S)n(-c2ccccc2OC)c1N,1.05,-1.0,-0.8,0.9,0.6
CCn1c(SCC(=O)N2CCCCC2)nc(O)cc1=O,-0.64,0.0,0.0,1.1,-2.1
COc1ccc(Oc2nc3c(c(=O)n(C)c(=O)n3C)n2Cc2ccccc2)cc1,0.56,-5.0,-5.0,1,-1.1
CCC(=O)NC(=S)NNC(=O)c1ccc(OC)cc1,2.2,75.0*,3.8,nt,-4.9
COC(=O)C1=C(C)N=C2SC(C#N)=C(N)N2C1c1ccc(OC)cc1 (configuration not stated),-2.27,-1.0,-2.4,1.1,-7.7
O=c1c2ccccc2nc(-c2ccc(Cl)cc2Cl)n1CCCn1ccnc1,0.25,8.0,4.5,1.2,-2.0
COc1ccc(OC2C(=O)N(Cc3ccc4c(c3)OCO4)C2c2cccs2)cc1 (configuration not stated),-1.79,-16.0,-0.6,1,2.3
Cc1nc(N2CCN(S(=O)(=O)c3ccccc3)CC2)c2c3c(sc2n1)CC(C)CC3 (configuration not stated),1.28,-7.0,-3.2,1.3,-5.1
CCOC(=O)NC(NC(=O)OCC)C(=O)c1ccc(F)cc1,0.74,3.0,-5.6,1.1,3.3
CCn1c(CC(=O)Nc2ccc(C)c(Cl)c2)nnc1SCc1ccc(Cl)c(Cl)c1,0.88,4.0,7.2,0.7,6.0
COc1ccc(C2CC(=O)C(C=NCCN3CCOCC3)=C(O)C2)cc1 (configuration not stated),0.19,-3.0,1.1,1.1,-5.0
CCCNC(=O)N1CCC(C(=O)c2ccc(F)cc2)CC1,-0.39,12.0,3.0,1.1,3.5
Cc1oc2cc(O)ccc2c(=O)c1-c1cnn(-c2ccccc2)c1,-2.6,-7.0,0.2,1,2.5
CCOC(=O)Cn1nc(C)n(-c2ccc(C(C)(C)C)cc2)c1=O,0.28,2.0,10.6,1,3.9
CCn1c(NCc2cc(Br)ccc2NS(=O)(=O)c2ccc(C)cc2)nc2ccccc21,-1.82,-8.0,7.8,1,-5.4
COc1ccc(S(=O)(=O)N2CCC(C(=O)NCC3CCCO3)CC2)cc1C (configuration not stated),-0.31,3.0,-5.4,1,4.2
c1ccc(-c2noc(-c3ccc4ccccc4c3)n2)cc1,-1.18,-16.0,-3.4,0.7,-1.3
Cc1cc(=O)oc2cc(NC(=O)CCC(=O)O)ccc12,2.18,-8.0,7.0,1,1.6
COc1ccc(Nc2nc(N)nc(CN(C)C3CCCCC3)n2)cc1,0.63,9.0,-18.5,1.2,0.1
Cc1cccc(Cn2cnc3c(nnn3Cc3ccc(Cl)cc3)c2=O)c1,-1.46,-11.0,1.6,0.9,6.3
O=C(OCc1ccc(C(=O)c2ccccc2)cc1)c1cccc(-c2nnc(-c3ccccc3)o2)c1,0.49,-13.0,-13.2,1.1,7.8
CCc1cccc(CC)c1-n1c(SCc2cc(=O)n3ccsc3n2)nnc1-c1cccnc1,-1.71,0.0,-6.7,1.5,-4.3
CC(C)C(NC(=O)c1ccc2c(c1)OCO2)C(=O)N/N=C\c1ccco1 (configuration not stated),0.48,-9.0,-4.2,1,-0.4
Cc1nn(C(=O)c2ccco2)c(C)c1Sc1ccc(Br)cc1,-0.92,-10.0,-21.1,1,5.0
COc1ccc(CNC(=O)Cc2c(C(=O)O)[nH]c3ccccc23)cc1,0.63,0.0,4.7,1.1,1.5
COc1ccc(C2C(C(=O)N3CCOCC3)=C(C)NC3=C2C(=O)CC(C)(C)C3)cc1O (configuration not stated),0.57,-7.0,1.6,0.9,-10.5
c1ccc(CSc2nnc([C@@H]3CCCN3)o2)cc1,1.23,4.0,4.2,1,1.8
CCN(CC)C(=O)C(=O)N/N=C/c1cccs1,-0.17,3.0,-7.5,0.9,8.7
O=C(O)C(Cc1ccccc1)N1C(=O)c2ccccc2C1=O (configuration not stated),0.53,-5.0,-7.0,1,5.7
CCNC(=S)NS(=O)(=O)c1ccccc1,0.13,2.0,-0.2,0.9,-2.1
CCC(C)Sc1nnc(CSc2nc3nc(C)cc(C)n3n2)o1 (configuration not stated),-0.64,2.0,-5.0,1,-3.2
Cc1ccc(S(=O)(=O)N2CCN(C(=O)CN3CCOCC3)C2)cc1,-0.16,6.0,3.9,1,2.3
O=C(Nc1ccc([N+](=O)[O-])cc1)/C(=C/c1cccc([N+](=O)[O-])c1)NC(=O)C1CCCCC1,-0.12,-7.0,10.3,1,-4.2
CCOC(=O)c1[nH]c2ccc(OC)cc2c1NC(=O)NC(C)C,0.11,5.0,-6.2,0.9,0.2
O=C(c1c(F)cccc1F)N1CCN(c2ccccc2F)CC1,-0.07,2.0,1.9,1,1.4
Cc1oc(-c2cccs2)nc1CS(=O)CC(=O)NCCCOC(C)C (configuration not stated),0.22,5.0,-5.6,1.2,0.8
O=C(CSc1nnc(-c2ccccc2)n1-c1ccccc1)c1cccs1,-1.31,-2.0,5.7,1,0.3
O=P(O)(CP(=O)(c1ccccc1)c1ccccc1)c1ccccc1O,0.4,5.0,-3.3,1,4.0
CCC(NC(=O)Nc1cc(OC)c(OC)c(OC)c1)(C(F)(F)F)C(F)(F)F,0.93,7.0,3.4,1.3,1.6
O=C(O)CN=C1NC2(CCCC2)Cc2ccccc21,1.72,-2.0,0.3,1,8.7
Cc1ccc(Nc2nnns2)cc1,0.53,4.0,0.2,1.1,7.7
COc1ccc(NC(=O)CCOc2ccccc2)cc1,-0.48,5.0,-4.7,1.1,-1.6
CCCOc1ccc(C2C(C(=O)c3ccco3)=C(O)C(=O)N2CCN2CCOCC2)cc1OC (configuration not stated),nt,-5.0,13.2,1.4,1.2
Cc1ccc(SCC(=O)Nc2ccc(N3CCN(c4ccccc4)CC3)c(F)c2)cc1,0.74,-7.0,-4.0,1,2.2
C=C(C)[C@H]1CC=C(C)/C(=N/NC(=O)CNc2ccccc2OC)C1,-0.51,5.0,17.7,0.9,8.8
Cc1cccc2c1OCC/C2=N\NC(=O)COc1ccccc1Cl,0.31,-5.0,-8.1,0.9,-6.5
CCOC(=O)N1CCC(NC(=O)CCC(=O)N2CC(C)Oc3ccc(C)cc32)CC1 (configuration not stated),-0.22,-5.0,-6.5,1.3,0.0
CC(=O)c1cc2c(cc1NC(=O)c1c(-c3ccccc3)noc1C)OCO2,-0.31,-9.0,-2.7,0.8,-6.0

# Two compounds picked at random from those above, as already listed:
SMILES,Pyk2 oligo antag,Ecoli WT expand,PostGolgi yeast,PLAP act,EphB4 antag
Cc1cccc2c1OCC/C2=N\NC(=O)COc1ccccc1Cl,0.31,-5.0,-8.1,0.9,-6.5
COc1ccc(NC(=O)CCOc2ccccc2)cc1,-0.48,5.0,-4.7,1.1,-1.6

# High-throughput results as filed in PubChem.
